Source: PubChem (National Center for Advancing Translational Sciences (NCATS))
RE007 growth inh = qHTS Assay for Inhibitors of the HIV-1 protein Vpr; 360,000 tested, 0.21% active; Potency, µM (series often up to 92.2 µM), for inactives: at the highest dose activity change, negative = less growth; S. pombe RE007 Vpr strain, BacTiter-Glo ATP luminescence, 24 h; control for the full effect not named in the record; active = well fitted falling curve with a large enough effect; inconclusive = small, poorly fitted or top-dose-only effect; inactive = no such curve, though single readings can be large or run the other way;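 further: nearly all actives have a fitted effect of over 50% in size; the assay follows cell death caused by Vpr and the record does not say whether a fall means rescue or toxicity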
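Fission yeast RE007 carrying one integrated HIV-1 vpr copy, seeded at OD 0.01 in PMG+AL medium with 23 nL pinned compound. Grown 24 h at 30 degrees; viability read by BacTiter-Glo luminescence after 5 min.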
StopGo reporter = High Throughput Screening for Foot and Mouth Disease Virus Antivirals; 410,000 tested, 1.2% active; human cells with a luciferase reporter of 2A StopGo recoding; control for the full effect not named in the record; AID 1159524, 2015; Potency, µM (series often up to 57.9 µM), for inactives: at the top dose signal change, negative = less light; active = well fitted falling curve with a large enough effect; inconclusive = small, poorly fitted or top-dose-only effect; inactive = no such curve, though single readings can be large or run the other way; tested in HEK293T cells; further: nearly all actives have a fitted effect of over 45% in size; luciferase light after 4 h
* marks the source's active call; other numbers are inactive results; ? = inconclusive; [ ] = remark or other dose. On the % scale 0 is the no-effect control and ±100 the full control effect; potency means the concentration at half of the fitted maximal effect. The list is partial (hit frequency here may not be typical).

SMILES | RE007 growth inh | StopGo reporter
CN1CCC(N(C)C(=O)c2ccc(Cl)c(S(=O)(=O)Nc3ccc(Cl)cc3)c2)CC1 | 4% | 22%
CN(C(=O)c1cccc(NC(=O)Cc2ccc(NC(=O)C3CCN(C(=O)C4CCC4)CC3)cc2)c1)C1CCCC1 | 5% | -13%
CCc1nc2ccc(C(=O)NC3CCN(C)CC3)cn2c1N(C)CCC(C)C | ? | -18%
CC1C(=O)N(Cc2cn(CCC3OCCO3)nn2)CCS(=O)(=O)N1Cc1ccc(-c2ccc(F)nc2)cc1 (stereo not given) | -10% | -31%
Cc1ccccc1COc1cccn2c(N(C)C(=O)CCC3CCCC3)c(C)nc12 | 0%[18.4 µM] | ?
CC1(C(=O)NCc2ccc(F)c(F)c2)Cc2c(-c3cccc(C(F)(F)F)c3)ccnc2O1 (stereo not given) | 4% | -14%
O=C(c1ccncc1)N1CCN(c2cc(-c3ccccc3)nc3cc(-c4cccc(Cl)c4)nn23)CC1 | 25% | 28µM*
CC(=O)Nc1cccc(-c2ccnc3c2CC(C(=O)NCC2CC2)O3)c1 (stereo not given) | -14% | -26%
N#CC1c2ccccc2-n2nncc2CN1C(=O)CCc1ccccc1 (stereo not given) | 5% | -22%
OCCOCCn1c(C(CO)Nc2nc(-c3ccc(F)cc3)cs2)nc2ccccc21 (stereo not given) | -3% | 8%
CC(=O)Nc1cc(-c2ccc(C(=O)NC3CC3)cc2)cn2c(-c3cccc(C(F)(F)F)c3)cnc12 | -4% | 25µM*
Cc1ccc(S(=O)(=O)N2C[C@H]3n4c(=O)ccc(=O)n4C[C@H](OC(=O)NCc4ccco4)[C@@]3(O)C2)cc1 | 6% | ?
COc1cccc(Nc2nc(C(N)CC(C)C)cs2)n1 (stereo not given) | -5% | -27%
CC1CCN(C(=O)c2ncn3c2c(=O)[nH]c2ccc(Br)cc23)CC1 | -9% | -3%
CCOc1ccccc1-c1cc(NC)ncn1 | -7%[18.4 µM] | -8%
Cc1cccc(NS(=O)(=O)c2ccc(S(=O)(=O)N3CCCC3)cc2)c1 | -4% | -9%
COc1ccc(-c2cnc3c(c2)C(=O)N([C@H](C)CO)C[C@@H](C)[C@H](CN(C)Cc2ccccc2)O3)cc1 | 1% | 24%
CCCNC(=O)C1(C)CCCN(C(=O)c2ccc3c(c2)CCO3)C1 (stereo not given) | 16% | -6%
CCc1c(-c2ccc(F)cc2)ncn1Cc1cccc(-c2ccccc2)c1 | -14% | ?
CN1CCN(c2ccc(S(=O)(=O)N3CCCCC3)cc2NC(=O)CSC(C)(C)C)CC1 | -7% | -5%
COc1ccc(C2C3=C(CCCC3=O)N(CC(=O)O)C3=C2C(=O)CCC3)cc1Br | -14% | -9%
Cc1cc(C=O)sc1[B-](F)(F)F | -14% | -11%
COc1ccc(-c2cn3c(C)c(C(=O)N4CCN(c5ccccc5)CC4)sc3n2)cc1 | 1% | 1%
O=C1NC(c2ccc3ccccc3c2)Nc2ccccc21 (stereo not given) | -3% | 15%
Nc1nc2c(ncn2[C@@H]2O[C@H](CNCc3ccc(OCCCN4CCOCC4)cc3)[C@@H](O)[C@H]2O)c(=O)[nH]1 | 8% | -11%
COc1nc(C)nc(NC(=O)NS(=O)(=O)c2ccccc2Cl)n1 | -10%[18.4 µM] | -17%
COc1ccc(NC(=O)c2nc[nH]c2C(=O)N(C)CCO)cc1 | -20% | 8%
O=C1NC[C@@H](Cc2ccc(O)cc2)N(CCc2cc(C(F)(F)F)cc(C(F)(F)F)c2)C1=O | 14% | -12%
CCOc1ccc(CCN2C(=O)C(=O)N([C@@H](CC(C)C)CN3CCC[C@H]3CN3C(=O)C(=O)NC[C@@H]3Cc3ccccc3)C[C@@H]2CC(C)C)cc1 | -5% | -21%
CCCN(C)C1CN(Cc2cn(Cc3ccc(C(F)(F)F)cc3)nn2)S(=O)(=O)C1 (stereo not given) | -6% | -12%
COc1cc(OC)cc(C(=O)NNC(=O)C2CCC2)c1 | 5% | 59%[activator]
C[C@@H]1CN([C@H](C)CO)C(=O)CCCn2nncc2CO[C@@H]1CN(C)S(=O)(=O)c1ccc(C#N)cc1 | 1% | -11%
Cc1ccc(Cc2c(-c3ccc(F)cc3)nc3ccc(Cl)cn23)cc1 | -14% | 11%
COc1ccc(OC)c(NC(=O)C2(C)CCN2C(=O)C2(c3ccccc3)CCCC2)c1 (stereo not given) | 0% | -21%
COc1ccc(C(C(=O)Nc2ccc(F)cc2)N2CCN(c3cccc(C(F)(F)F)n3)CC2)cc1 (stereo not given) | 9% | 21%
Cc1cc(C)cc(C(O)c2ncc(-c3ccc(C(F)(F)F)cc3)[nH]2)c1 (stereo not given) | 0% | -18%

Rewritten with tabs: two of the compounds above
molecule	RE007 growth inh	StopGo reporter
CCCN(C)C1CN(Cc2cn(Cc3ccc(C(F)(F)F)cc3)nn2)S(=O)(=O)C1 (stereo not given)	-6%	-12%
Cc1ccc(Cc2c(-c3ccc(F)cc3)nc3ccc(Cl)cn23)cc1	-14%	11%

(continued)
SMILES | RE007 growth inh | StopGo reporter
O=C(NCc1cc(C(F)(F)F)cc(C(F)(F)F)c1)c1cc(-c2cc(F)ccc2OCC2CCCO2)n[nH]1 (stereo not given) | 0% | 6%
C[C@@H]1CN([C@H](C)CO)C(=O)CCCn2nncc2CO[C@H]1CN(C)S(=O)(=O)c1ccc2c(c1)OCCCO2 | 5% | -21%
c1ccc(OCCNc2ccn3nc(-c4ccc(OCCN5CCOCC5)cc4)cc3n2)cc1 | ? | ?
CCc1nc2ccc(C(=O)NCc3ccccc3OC)cn2c1N(C)C(=O)Cc1ccccc1 | 1%[18.4 µM] | 4%
Cc1cc(C)c(C(O)c2ncc(-c3ccccc3C)[nH]2)c(C)c1 (stereo not given) | -18%[18.4 µM] | 0%
C[n+]1cccc(C(=O)O)c1 | 17%[18.4 µM] | 0%
COc1ccccc1N1CCN(C(=O)c2[nH]c(C(F)(F)F)nc2-c2ccccc2)CC1 | 2% | -11%
NC(CCc1ccccc1)c1csc(Nc2ccc(C(F)(F)F)cn2)n1 (stereo not given) | 1% | -26%
CN(C)CCNC(=O)c1cccc(-c2cnc3c(NC=O)cc(/C=C/c4ccccc4)cn23)c1 | 8%[18.4 µM] | -4%
CCOC(=O)C1CCN(C(=O)c2sc3ncn(CC(=O)N4CCCCC4)c(=O)c3c2C)CC1 | -12% | -6%
NCCCC[C@H]1CN=C(N)N1CC1CCCCC1 | 2% | -12%
Cc1cc(CN(Nc2ccccc2)c2ccccc2)cc(C)n1 | -20% | -4%
CCC(CC)C(=O)N(C)c1c(C)nc2c(OCC=C(C)C)cccn12 | 14% | -12%
CC(Oc1ccccc1F)C(=O)NNC(=O)Cc1ccc(S(=O)(=O)N2CCOCC2)s1 (stereo not given) | 12% | -3%
COc1ccccc1C1/C(=C(/O)c2cnn(-c3ccccc3)c2C)C(=O)C(=O)N1CCN(C)C (stereo not given) | -7% | 4%
C(=C\c1ccccc1)/CN1CCN(C(c2cccc3ccccc23)c2nnnn2C2CCCC2)CC1 (stereo not given) | -9% | -3%
CNCc1cc(C)n(-c2cc(S(=O)(=O)N3CCOCC3)ccc2N2CCCC2)c1C | -1% | -13%
COc1ccc(NC(=O)C(C)N2C(=O)c3ccccc3C2=O)c(OC)c1 (stereo not given) | 5% | 15%
Cc1ccc(CN2C(=O)c3ccccc3C2c2nnnn2-c2ccc3c(c2)OCCO3)cc1 (stereo not given) | 4% | 6%
CN(C(=O)c1cccc(NC(=O)Cc2cccc(NC(=O)C3CCCN(C(=O)C4CC4)C3)c2)c1)C1CCC1 (stereo not given) | -5% | -14%
Cc1ccc(S(=O)(=O)NC(=O)C2(C)CCN2C(=O)C2(c3ccc(Cl)cc3)CCC2)cc1 (stereo not given) | 1% | 23%
O=C(NCc1ccccc1)c1cc(C2COCCN2C(=O)OCCF)on1 (stereo not given) | 2%[18.4 µM] | -10%
COc1ccc(NC(=O)N(C)C[C@H]2Oc3ccc(NS(=O)(=O)c4cn(C)cn4)cc3C(=O)N([C@H](C)CO)C[C@@H]2C)cc1 | 7% | -10%
CC1(C)OC(=O)C2=C(C[C@@H](C3CC3)O[C@H]2c2ccc(Cl)cc2)O1 | 1% | -11%
O=C(O)C[C@H]1c2ccccc2S(=O)(=O)N1C1CCCCC1 | 3% | 42%[activator]
Nc1cc(N)cc(-c2nc3ccccc3o2)c1 | 10% | 5%
CCOc1cc(OCC)cc(C(=O)N2CCC[C@H]2C(=O)N2CCC[C@H]2C(=O)N[C@H](C)c2ccccc2)c1 | 13% | -20%
OCC[C@@H]1C[C@H](O)[C@@H](O)[C@@]2(OCc3cc(Cl)ccc32)O1 | -4% | -11%
FC(F)(F)c1ccc(-c2cccc3c2C2CC3CCN2Cc2ccccc2)cc1 (stereo not given) | 4% | 0%
FC(F)(F)c1cc(Cl)c2nc(-c3cccc(Cl)c3)c(Cc3cccc(Cl)c3)n2c1 | 0% | -26%
COC(=O)[C@]12CCCCC=C1N(CCC1=CCCCC1)C(=O)[C@H](CC(=O)N1CCOCC1)C2 | 0% | -20%
CN(CC(=O)Nc1ccc(F)cc1)C(=O)c1ccc(-c2ccc(F)cc2)o1 | -12% | -12%
O=C(COC(=O)/C=C/c1ccccc1Cl)NC1CC1 | 6% | 4%
O=C1NC[C@H](CCCCN2C[C@H](Cc3ccc(O)cc3)N(CCc3ccccc3)C(=O)C2=O)N(CC2CCCCC2)C1=O | 1% | -11%
CCOC(=O)Cc1ccc(Nc2nc3cc(-c4sccc4C)sc3c(=O)n2C)cc1 | 4% | 14%
C[C@H]1CN([C@@H](C)CO)C(=O)CCCn2nncc2CO[C@H]1CN(C)S(=O)(=O)c1ccccc1F | -8% | 9%

Brought forward from above: four compounds, followed by the next part.
SMILES | RE007 growth inh | StopGo reporter
O=C(COC(=O)/C=C/c1ccccc1Cl)NC1CC1 | 6% | 4%
O=C1NC[C@H](CCCCN2C[C@H](Cc3ccc(O)cc3)N(CCc3ccccc3)C(=O)C2=O)N(CC2CCCCC2)C1=O | 1% | -11%
CCOC(=O)Cc1ccc(Nc2nc3cc(-c4sccc4C)sc3c(=O)n2C)cc1 | 4% | 14%
C[C@H]1CN([C@@H](C)CO)C(=O)CCCn2nncc2CO[C@H]1CN(C)S(=O)(=O)c1ccccc1F | -8% | 9%
Cc1ccc(/C=C/C(=O)OCC(=O)N(C)c2c(N)n(Cc3ccccc3)c(=O)[nH]c2=O)o1 | 2% | -14%
Cc1ccc(N2C3=C(C(=O)CC(C)(C)C3)C(c3cn(C)nc3C)C3=C2CC(C)(C)CC3=O)cc1 | -4% | -4%
COc1ccc([C@H]2C[C@@H](n3cc(C4CC4)nn3)[C@H](O)CN2C(=O)C2CCCCC2)cc1 | -6% | -24%
Nc1ccn([C@@H]2O[C@H](C(=O)NCc3ccc4c(c3)OCO4)[C@@H](O)[C@H]2O)c(=O)n1 | 11% | -7%
CCOC(=O)[C@]12CCCC=C1N(CCc1ccc(OC)c(OC)c1)C(=O)[C@H](CC(=O)NCC13CC4CC(CC(C4)C1)C3)C2 | -17% | -9%
COc1ccc([N+](=O)[O-])cc1CN1CCN(c2ncc(Cc3ccccc3)cn2)CC1 | -20% | ?
CC(C)C[C@H]1CN(CCCC[C@H]2CNC(=O)C(=O)N2CC2CCCCC2)C(=O)C(=O)N1CCc1ccccc1 | 5% | -14%
CCO[C@@H]1OC(C(=O)NCc2nc3ccccc3[nH]2)=C[C@H](c2coc3ccccc3c2=O)[C@H]1CCCO | -12% | -14%
CCc1nc2ccc(C(=O)N3CCN(C(=O)c4ccco4)CC3)cn2c1N(C)C(=O)COc1ccccc1 | 8%[18.4 µM] | -2%
CCCCCNC(=O)C(c1ccc(C#N)cc1)n1c(=O)c(-c2ccco2)nc2ccccc21 (stereo not given) | -2% | -8%
C#CCCOC(=O)N1C2=NC(C(=O)OC)=C(C(=O)OC)[C@@H]3N(C)c4ccccc4[C@]23C[C@H]1CO | -2% | -13%
COc1cc(C=NC2CCCCC2)ccc1O | -6% | 0%
CC(=O)Nc1cccc(-c2csc(C(C)(O)c3ccc(F)c(F)c3)n2)c1 (stereo not given) | -3% | -10%
CC(C)(C)S(=O)N1Cc2cc(C(=O)O)nc(-c3cccc(-c4cc5ccccc5o4)c3)c2[C@H]1CCO (stereo not given in full) | 16% | -3%
CC(=O)c1cccc(NC(=O)C2Cc3c(-c4ccccc4Oc4ccccc4)ccnc3O2)c1 (stereo not given) | 4% | ?
COC(=O)[C@]12CCCCC=C1N(Cc1ccccc1)C(=O)[C@H](CC(=O)N1CCCC1)C2 | -8% | -14%
C=CCN(CC=C)Cc1cc(=O)oc2cc(C)c(Cl)cc12 | -19% | -23%
Nc1ncc([N+](=O)[O-])cc1S(=O)(=O)c1ccccc1 | 4% | -18%
CN(Cc1c(F)cccc1Cl)C(=O)COC(=O)Cn1cnc2ccccc2c1=O | -10% | -8%
CC1(C(=O)NCCC#N)CCN1C(=O)C1(c2ccccc2)CCCC1 (stereo not given) | 2% | -7%
COc1cccc(C(C)(O)c2nc(-c3cccc(C#N)c3)cs2)c1 (stereo not given) | 14% | ?
C#CCN(C[C@H]1[C@H](OC(=O)Nc2c(C)noc2C)[C@H](OC(=O)Nc2c(C)noc2C)C[C@H]2C(=O)N(c3ccccc3)C(=O)[C@@H]12)S(=O)(=O)c1ccc(C)cc1 | -4% | 0%
